Compound activity deposited in PubChem by several laboratories.
AF4-AF9 inh: blocks AF4 peptide binding to human AF9; P42568; AlphaScreen, biotin-AF4 peptide binding to FLAG-AF9; inhibition, % at 10 µM; 350,000 tested, 0.47% active; AID 651704;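 active = every replicate reaching a set inhibition limit, whatever the replicate mean, cut at about 25% in these data; inconclusive = mean inhibition reaches that limit but some replicates miss it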;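 also: 0% = plate neutral control median and 100% = total signal loss; the record names both 10 and 1 µM as test concentration; the first replicate is given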
Vif TR-FRET: inhibitors of Vif binding to APOBEC3G peptide, primary screen, biochemical, TR-FRET, GST-Vif 1-94, biotin-A3G peptide, dose response retest (AID 1117319); TR-FRET GST-Vif / biotin-A3G peptide binding; higher % means a stronger effect; test concentration not given here; strong numbers were not always called active; one-dose inhibition, %; IC50 in µM for titrated hits; 260,000 tested, 0.57% active;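 active = above the screen mean plus three standard deviations and confirmed in dose response; inconclusive = results disagree or hit not tested in dose response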;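 also: Vif residues 1-94 fused to GST binding biotinylated APOBEC3G peptide 110-148; 0% = full assay without inhibitor and 100% = GST in place of GST-Vif; retest series ran down from 100 µM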
RanGTP-Imp inh: disruptors of Ran-importin-beta complex formation – biochemical, FRET, CFP-Ran, YFP-importin-beta, homogeneous, primary screen; cell-free CFP-Ran/YFP-importin-beta FRET ratio; 300,000 tested, 1.1% active; inhibition, % (concentration not given with the values);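 active = most replicates above 15%; inconclusive = exactly half above 15%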;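 also: 0% = DMSO wells and 100% = Ran loaded with GDP instead of GTP; wells of about 40 µL received 100 nL stock; the first replicate is given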
UCH37 DUB inh: human UCH37 deubiquitinating enzyme inhibition. inhibition, % (no concentration beside the values). Q9Y5K5. AID 588478. 330,000 tested, 0.33% active. purified proteasome/UCH37, Ub-AMC cleavage fluorescence;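 active = mean of two replicates above 20%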;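 also: 0% = compound-free wells with enzyme and 100% = wells lacking proteasome; stock transfer was 100 nL into about 20 µL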
Target sequence (Q9Y5K5 whole entry, looked up): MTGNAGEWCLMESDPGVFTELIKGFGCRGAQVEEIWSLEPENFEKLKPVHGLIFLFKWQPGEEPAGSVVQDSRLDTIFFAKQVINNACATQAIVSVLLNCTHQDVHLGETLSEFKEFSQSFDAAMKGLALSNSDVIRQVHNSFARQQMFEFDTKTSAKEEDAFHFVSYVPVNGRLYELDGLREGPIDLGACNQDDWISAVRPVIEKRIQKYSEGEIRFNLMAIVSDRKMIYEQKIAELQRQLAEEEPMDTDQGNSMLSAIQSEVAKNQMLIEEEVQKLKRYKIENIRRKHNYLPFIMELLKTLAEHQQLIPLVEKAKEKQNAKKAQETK
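Reagent: Ub-AMC substrate; assay system: Proteasome-associated human UCH37 deubiquitinase; controls: no-proteasome and no-compound wells; read-out: % inhibition of Ub-AMC cleavage fluorescence; timing: 30 min preincubation with enzyme, 25 min cleavage at room temperature; signal: AMC fluorescence from Ub-AMC cleavage, excitation 355 nm, emission 460 nm; buffer or medium: Tris-HCl pH 7.4 plus ovalbumin, ATP-MgCl2, DTT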
E coli growth: E. coli growth inhibition; Escherichia coli growth, OD600, 23 h; stronger effect = lower value; OD600 absorbance (test concentration not listed); 330,000 tested, 0.21% active;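 active = OD600 absorbance below the run mean of sample wells minus 3.6 SD, in any replicate, cut at about 0.56 in these data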;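 also: stock transfer was 300 nL into about 60 µL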
HNF4A DNA FP: change in binding of human HNF4 alpha to DNA. AID 1224865. HNF4a-FITC DNA binding, fluorescence polarization, 1 h. activity change, % at 10 µM. 360,000 tested, 0.3% active. P41235; in the data active = activity change above about 30%, passing the limit was not always enough;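 also: controls were the assay level and a saturating level of protein; the project sought stronger binding though the title names inhibitors; some compounds called inactive have numbers as strong as hits; positive values seem to mean higher polarization but the record does not say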
Target sequence (P41235 whole entry, looked up): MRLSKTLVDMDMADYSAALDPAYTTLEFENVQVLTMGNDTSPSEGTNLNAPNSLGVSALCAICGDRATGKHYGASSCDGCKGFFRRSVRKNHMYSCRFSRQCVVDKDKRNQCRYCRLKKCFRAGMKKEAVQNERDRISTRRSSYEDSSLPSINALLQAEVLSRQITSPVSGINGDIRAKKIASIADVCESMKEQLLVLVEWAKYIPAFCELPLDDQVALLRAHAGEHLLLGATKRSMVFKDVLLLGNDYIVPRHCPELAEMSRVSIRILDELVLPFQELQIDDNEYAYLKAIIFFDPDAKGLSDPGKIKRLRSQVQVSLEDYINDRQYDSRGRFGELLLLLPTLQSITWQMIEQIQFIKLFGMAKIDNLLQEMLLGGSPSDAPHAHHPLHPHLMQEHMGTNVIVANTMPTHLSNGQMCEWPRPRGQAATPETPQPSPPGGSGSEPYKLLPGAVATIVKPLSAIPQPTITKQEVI
FGF22 binding: shifts melting point of recombinant human FGF22; Q9HCT0; recombinant FGF22 thermal shift, SYPRO orange fluorescence; percent of sucrose octasulfate shift, DMSO zero; calls only at 9.99 µM; 340,000 tested, 1.5% active; AID 651658;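 active = melting point raised past a set limit in the mean and every replicate; inconclusive = no clear call; three in four hits are not shown here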
Target sequence (Q9HCT0 whole entry, looked up): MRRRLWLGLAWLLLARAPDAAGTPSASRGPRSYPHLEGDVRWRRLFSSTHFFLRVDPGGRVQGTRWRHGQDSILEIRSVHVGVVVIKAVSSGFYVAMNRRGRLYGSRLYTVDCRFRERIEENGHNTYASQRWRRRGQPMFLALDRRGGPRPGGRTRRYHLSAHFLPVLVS
Starred values were filed as active, the others as inactive; i = inactive; ? = inconclusive; · = not tested or not shown. A portion of the library. The share of hits here may be higher or lower than overall.

SMILES	AF4-AF9 inh	Vif TR-FRET	RanGTP-Imp inh	UCH37 DUB inh	E coli growth	HNF4A DNA FP	FGF22 binding
COCCN1CCN(c2c3c(nc4cc(-c5cccc(F)c5)nn24)CCC3)CC1	·	-6%	7.7	-7.2	0.72	-0.5	·
FC(F)Oc1ccc(-c2csc(Cc3nnc4n3CCCCC4)n2)cc1	·	9%	-4.7	1.5	0.7	-5.3	·
Cn1cnnc1SCc1ccc(C(=O)N/N=C/c2cccs2)cc1	-1.4	·	2.6	·	·	0.2	i
CCOc1ccc(OCCn2c(S(=O)(=O)O)nc3c(N)ncnc32)cc1	·	7%	-3.3	-1.2	0.68	1.9	·
Cc1csc(NC(=O)C2C3C=CC(C3)C2C(=O)O)n1 (stereo not drawn)	·	11%	1.3	-2.7	0.65	-3.1	·
COc1cccc(CCNC(=O)c2ccc(OC)c(OC3CCN(C(C)C)CC3)c2)c1	-5.1	·	-3.1	-1.0	0.67	0.8	i
CCCn1c(NC(=O)c2ccc([N+](=O)[O-])o2)nc2ccccc21	2.8	14%	12	-8.3	0.63	-6.1	·
Cc1cccc(CNC(=O)C2CCCN(c3nn4c(=O)cc(C)nc4s3)C2)c1 (stereo not drawn)	-10	·	0.5	0.3	0.79	-2.2	i
C[C@H](NC(=O)c1ccco1)C(=O)Nc1nnc(SCc2ccccc2)s1	-1.3	·	·	0.1	0.7	1.2	i
O=C1[C@H]2[C@@H](c3ccc(C(F)(F)F)cc3)N[C@]3(CCCN(Cc4ccc(C(F)(F)F)cc4)C3=O)[C@H]2C(=O)N1Cc1ccccc1	-0.8	-5%	·	·	·	5.5	i
COc1ccc(CCN(C(=O)c2ccco2)C(C(=O)NC2CCCC2)c2ccncc2)cc1OC (stereo not drawn)	-3.2	2%	0.7	2.1	0.72	1.7	i
COc1ccc(-n2c(C)cc(C(=O)COC(=O)c3ccc(O)cc3O)c2C)cc1	4.2	·	·	0.0	0.64	12	i
Cc1cc(Cl)cc(Cl)c1OCC(=O)NCc1ccco1	·	11%	-0.9	-1.1	0.73	-1.3	·
O=C1CCCN1c1ccc(N2CCCC2=O)cc1	1.2	·	-4.7	0.3	0.62	-3.4	i
CCN(CC)C(=O)Oc1cc(COC)nc(-c2ccccc2)n1	-1.9	·	4.4	4.7	0.68	-0.4	i
COc1ccccc1NS(=O)(=O)c1cc(C(=O)N2CCCCCCC2)ccc1C	-6.0	2%	1.7	1.5	0.61	-5.7	i
COCCn1c(SCC(=O)NC2CCCCC2C)nnc1-c1ccncc1 (stereo not drawn)	1.0	2%	0.7	1.1	0.65	3.0	i
Cc1cccc(NC(=O)C2CCN(S(C)(=O)=O)CC2)c1C	-2.2	0%	1.2	·	·	1.6	i
O=c1cc(-c2ccccc2)nc(Sc2ccc([N+](=O)[O-])cc2[N+](=O)[O-])[nH]1	-1.3	·	0.2	6.8	0.64	1.2	i
CCc1cccc2c(C(=O)C(F)(F)F)cn(CC(=O)NCC3CCCO3)c12 (stereo not drawn)	-2.1	-3%	-2.5	5.7	0.69	-2.9	i
COc1ccc([C@@]2(O)c3c(ccc(CC=C(C)C)c3O)NC(=O)[C@@H]2OC)cc1	1.8	·	4.2	1.7	0.71	8.9	i
Fc1ccc(Cn2cnc3ccccc32)cc1	·	?	-2.0	4.8	0.66	-4.4	·
CCOc1ccc(NC(=O)CCS(=O)(=O)c2ccc3c(c2)CCCN3C(C)=O)cc1	·	-1%	5.5	1.4	0.74	-0.2	·
CC(=O)C1=CCC(c2ccc(Cl)c(Cl)c2)N(S(=O)(=O)c2ccc(C)cc2)C1 (stereo not drawn)	-0.4	·	·	·	·	1.3	i
O=c1[nH][nH]c(C(F)(F)F)c1C=Nc1ccc(Cl)cc1	·	?	0.7	1.6	0.65	0.9	·
c1ccc(-c2cnc(-c3ccccc3)nn2)cc1	-0.7	·	6.2	3.4	0.66	-2.3	i
Cc1nnc(NC(=O)C2CSC3(C)CCC(=O)N23)s1 (stereo not drawn)	0.6	6%	4.0	5.0	0.68	1.9	i
O=C(OCCc1cc2ccccc2c(=O)o1)c1ccc(C(F)(F)F)cc1	-1.6	·	·	6.2	0.79	-1.0	i
CC(C)Cc1nc(SCC(=O)N2CCOCC2)c2c(=O)n(C)c(=O)n(C)c2n1	0.0	·	0.9	4.4	0.69	9.2	i
CC(C)CNC(=S)NC(=O)c1ccc([N+](=O)[O-])cc1	·	6%	2.8	4.2	0.76	2.5	·
O=C(Nc1ccccc1Cl)Oc1ccc(-c2ccccc2)cc1	-0.4	8%	-4.4	5.6	0.59	5.7	i
O=C(NC(=S)Nc1ccc([N+](=O)[O-])cc1)c1ccco1	-4.1	·	·	·	·	-0.3	i
O=C1CC(Nc2ccc(N3CCOCC3)cc2)C(=O)N1c1cccc(C(F)(F)F)c1 (stereo not drawn)	·	?	2.9	4.1	0.73	2.3	·
CCCCCN(C(=O)CCC(=O)OCC(=O)N(C)C1CCCCC1)c1c(N)n(CCCC)c(=O)[nH]c1=O	-4.1	2%	1.2	0.5	0.66	4.7	i
COc1ccc(S(=O)(=O)NCCc2cn3nc(C)c(C)nc3n2)cc1	-3.9	·	?	i	0.68	3.6	i
Cc1ccc(S(=O)(=O)CCN2CCC(n3cccc3)CC2)cc1	7.1	-11%	-0.6	3.1	0.6	1.3	i
CS(=O)(=O)N(CC(=O)N1CCCC1)c1ccccc1F	-20	·	0.3	5.0	0.73	1.8	i
COc1cccc2c(=O)n(CC(=O)N3CCCc4ccccc43)ccc12	0.7	2%	0.6	0.6	0.67	4.7	i
Cc1csc(NC(C)c2nc3cc(Cl)c(N4CCCCC4)cc3n2CCOCCO)n1 (stereo not drawn)	-14	·	-2.6	4.9	0.67	0.5	i
CCOc1ccccc1CN1CCNC(=O)C1CC(=O)NCc1nc(C)cs1 (stereo not drawn)	1.3	·	-0.3	1.1	0.67	-4.5	i
O=C1c2ccccc2C2=Nc3ccccc3SC(c3ccccc3F)C12 (stereo not drawn)	·	-12%	4.6	7.3	0.68	3.8	·
Cn1c(N)c(C(=O)CN2CCc3ccccc3C2)c(=O)n(C)c1=O	-0.6	-7%	-2.7	1.9	0.67	3.2	i
C=CCN(C(=O)c1csnn1)C(C(=O)NC1CCCCC1)c1ccccc1 (stereo not drawn)	0.6	·	4.7	3.9	0.71	3.0	i
CC1CN(C(=O)c2cccc(S(=O)(=O)Nc3ccc(Cl)cc3)c2)CC(C)O1 (stereo not drawn)	-2.0	12%	2.8	-0.8	0.71	-3.1	i
COc1cccc(CN(C)C(=O)c2cccc(OCc3ccccc3)c2)c1	-2.9	2%	-1.4	2.6	0.7	0.2	i
CC(C)(C)SCCNC(=O)c1ccc(CN2CCc3ccccc3C2)cc1	1.0	0%	-4.6	0.7	0.7	-0.9	i
COC(=O)CC1=C(C(=O)OC)C(c2cc(OC)c(OC)cc2OC)C(C#N)=C(N)O1 (stereo not drawn)	·	14%	3.0	3.1	0.74	2.5	·
CSc1nc(N2CCOCC2)c2c(c1C#N)CC(C)(C)OC2	·	3%	4.5	-0.6	0.72	4.3	·
CN(C)c1nc(Nn2cnnc2)nc(N(C)C)n1	-43	-3%	-1.7	5.0	0.69	-19	i
CCCCCCN1CCN(C2CN(C3CCCCC3)S(=O)(=O)C2)CC1 (stereo not drawn)	-7.1	·	·	·	·	-2.8	i
CCCNC(=S)Nc1ccc(CC(=O)OC)cc1	-2.9	·	-0.8	2.0	0.69	-2.7	i
Cc1ccc(Cl)cc1NC(=O)COC(=O)C1CC1	0.7	·	-3.7	3.1	0.74	-1.1	·
Cc1ccc(N=C2C(=O)Nc3ccccc32)cc1	-1.4	·	-2.7	·	·	0.3	i
CC1(c2ccc3c(c2)OCCO3)NC(=O)N(CC(=O)c2ccc[nH]2)C1=O (stereo not drawn)	-0.2	-6%	·	6.1	0.73	2.3	i
COc1ccc(CCNC(=O)CCSc2nc(-c3ccco3)cc(C(F)(F)F)n2)cc1OC	·	1%	1.9	3.5	0.74	0.6	·
CC(=O)N1c2ccccc2[C@H](C)[C@H]1C	-0.1	·	·	0.1	·	-1.4	i
COc1cc(C)c(Cl)cc1S(=O)(=O)NC1CC(C)(C)NC(C)(C)C1	·	1%	6.7	1.5	0.71	·	·
CC(C)(C)OC(=O)NCCCC[C@H](NC(=O)c1nc[nH]c1C(=O)NCC(=O)OCc1ccccc1)C(=O)OC(C)(C)C	4.9	·	-2.4	2.3	·	-3.1	i
O=C(O)c1c(-n2cccc2)sc2c1CCCC2	-1.2	6%	-0.5	3.8	0.71	2.5	i
CN(C)S(=O)(=O)c1ccc(Cl)c(C(=O)OCC(=O)c2ccco2)c1	0.4	·	·	-1.4	0.69	-5.8	i

Results in RanGTP-Imp inh, FGF22 binding and UCH37 DUB inh (3 entries from above):
mol	RanGTP-Imp inh	FGF22 binding	UCH37 DUB inh
CC(C)(C)SCCNC(=O)c1ccc(CN2CCc3ccccc3C2)cc1	-4.6	i	0.7
COC(=O)CC1=C(C(=O)OC)C(c2cc(OC)c(OC)cc2OC)C(C#N)=C(N)O1 (stereo not drawn)	3.0	·	3.1
CSc1nc(N2CCOCC2)c2c(c1C#N)CC(C)(C)OC2	4.5	·	-0.6

Later entries:
SMILES	AF4-AF9 inh	Vif TR-FRET	RanGTP-Imp inh	UCH37 DUB inh	E coli growth	HNF4A DNA FP	FGF22 binding
CCOC(=O)c1sc(NC(=O)C2=COCCO2)c(C#N)c1C	-1.7	0%	2.2	8.3	0.66	-1.4	i
CN(C)c1ccc(/C=N/NC(=O)CNC(=O)c2ccco2)cc1	0.3	9%	-3.3	·	·	-2.9	·
O=C(c1cccs1)N(Cc1ccco1)C1CCS(=O)(=O)C1 (stereo not drawn)	·	-4%	-0.4	2.2	0.73	6.4	·
c1ccc(NCc2cccc3ccccc23)nc1	5.8	·	3.1	-0.4	0.63	-3.5	i
O=C(N/N=C/c1ccncc1)c1cccc(S(=O)(=O)N2CCCC2)c1	-2.6	7%	·	·	·	1.6	i
CCC1=C2CC[C@H]3C(=O)N(c4ccccc4)C(=O)[C@H]3[C@H]2[C@@]2(C)C(=NCc3ccccc3)OC(=O)N2C1=O	1.0	·	0.6	3.4	·	5.6	i
Cc1ccc(S(=O)(=O)N2CCC(Oc3ccc(-n4cnnn4)cc3)CC2)cc1	-1.6	·	4.5	-2.1	0.7	2.9	i
C=CCNC(=S)/N=c1/ccccn1Cc1ccccc1	3.4	·	-2.7	·	·	-2.4	i
Cc1cc(C(=O)OC(C)C(=O)NC2CCCCC2C)c2ccccc2n1 (stereo not drawn)	0.6	-3%	·	·	·	-2.9	i
Cc1cccc(NC(=O)CSc2nnc(C3CC3)n2CC2CCCO2)c1 (stereo not drawn)	-1.9	2%	-3.4	3.3	0.69	-1.9	i
O=C(COC(=O)c1ccccc1O)NNC(=O)c1ccc(Br)cc1	-0.4	-7%	·	-4.9	0.71	2.2	i
c1ccc(CN2CCc3[nH]c4ccccc4c3C2)cc1	4.9	-6%	·	·	·	1.1	i
C[C@@H]1COc2cc(N3CCC[C@H]3CO)ccc2S(=O)(=O)N1	-1.1	·	·	·	·	3.0	i
CC1SCC(=NOCc2ccccc2)CS1 (stereo not drawn)	-0.9	1%	-0.6	2.0	0.68	1.9	i
COc1ccc(-c2[nH]ncc2CN(C)CCCN2CCOCC2)cc1F	1.2	11%	2.2	2.0	0.65	2.9	i

2 successive entries from above, for reference:
SMILES	AF4-AF9 inh	Vif TR-FRET	RanGTP-Imp inh	UCH37 DUB inh	E coli growth	HNF4A DNA FP	FGF22 binding
c1ccc(NCc2cccc3ccccc23)nc1	5.8	·	3.1	-0.4	0.63	-3.5	i
O=C(N/N=C/c1ccncc1)c1cccc(S(=O)(=O)N2CCCC2)c1	-2.6	7%	·	·	·	1.6	i
